Screening data from PubChem BioAssay.
Ab BasE inh: blocks the Acinetobacter baumannii siderophore enzyme BasE | 84,000 compounds, 0.1% hits | AID 485350 | inhibition, % (concentration not given with the values) | purified BasE, fluorescence polarization binding displacement;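 active = both replicates above 25% with normal brightness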;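 note: 0% = negative plate control signal and 100% = positive plate control signal; stock transfer was 100 nL into about 30 µL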
KSHV LANA nucl: inhibitors of KSHV LANA binding to nucleosomes; FITC-LANA1-23 / chicken nucleosome fluorescence polarization; hits give low values; z-score (concentration not given with the values); 51,000 compounds, 0.3% hits; AID 720717;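 active = both repeat wells score below -2 in polarization z-score versus plate sample wells, excluding overly bright wells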;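 note: 100 nL library stock added to about 30 µL; numbers are from one replicate; some results filed as inactive read as strong as hits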
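Material: Purified chicken nucleosomes with FITC-labelled LANA N-terminal peptide (1-23) | Reagent: 50 nM FITC-LANA1-23 probe | Medium: TEN-BT buffer, pH 7.5 | Times: 10–45 min incubation at room temperature | Detection: Fluorescence polarization | Replication: Duplicates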
Active calls of the source: *; nt = no result given; & = joins results of further samples. A portion of the library; count on the stated rates, not on these rows.

SMILES	Ab BasE inh	KSHV LANA nucl
CCN1CCN(S(=O)(=O)c2ccc(Cl)c(C(=O)NCCc3ccc4c(c3)OCCO4)c2)CC1	-0.4	nt
O=C(Cc1n[nH]c(=O)c2ccccc12)N/N=C/c1ccc(-c2ccc(Br)cc2)o1	-1.9	0.17
CCN1CCCC1CNCC(=O)Nc1ccccc1C(=O)NCCc1ccc(OC)cc1 (configuration not stated)	0.3	nt
O=C(c1ccccc1)c1ccc(N2CCCC2)cc1	-1.1	-1.1
CCOCCCN=C1NC(C)(C)CS1	1.7	nt
COC(=O)C1=NNC2C(=O)N(c3cc(C)cc(C)c3)C(=O)C12 (configuration not stated)	1.4	0.28
CN(C)/C=N/c1nnc(SCc2ccc(F)cc2)s1	nt	0.013
Cn1c(-c2ccc3c(c2)OCO3)cnc1NCc1cc(Cl)ccc1O	3.1	0.23
COc1cc(Cl)c(C)cc1NC(=O)COCc1cc(-c2ccco2)on1	-0.8	0.29
CN(C)c1ccc(/C=C2/SC(N3CCN(CCC#N)CC3)=NC2=O)cc1	-33	5.7
COC(=O)c1cc(OC)c(OC)cc1NC(=S)N1CCN(C)CC1	0.8	0.13
CC1CC(C)CN(Cc2nc(N)nc(Nc3ccc4ccccc4c3)n2)C1 (configuration not stated)	-2.2	nt
Cc1onc(-c2ccccc2)c1C(=O)NC1CCCCC1NC(=O)c1c(-c2ccccc2)noc1C (configuration not stated)	-1.6	-1.8
Cc1ccccc1C(=O)N1CCC(C(=O)Nc2ccccc2)CC1	-2.0	nt
CCOC(=O)NC1Cc2ccccc2C1Sc1ccccn1 (configuration not stated)	nt	-0.37
COc1ccc(N=C2SC(CC(=O)Nc3ccc(F)cc3F)C(=O)N2CCCN2CCOCC2)cc1 (configuration not stated)	-0.1	nt
Cc1[nH]c(=O)c(C#N)c(C)c1CCC(=O)NC1CCCCCC1	-0.1	nt
Cc1ccc(CNCc2cccn2-c2sc(C)c(C)c2C(=O)O)cc1	-1.0	-0.54
COc1cc(NCCCC(C)N)c2ncccc2c1 (configuration not stated)	-1.1	nt
CC1(C)CC(=O)c2cn3ncnc3nc2C1	0.0	1.1
FC(F)(F)c1cnc(N2CCN(Cc3cc(Cl)c4c(c3)OCCCO4)CC2)c(Cl)c1	1.1	nt
N#Cc1ccc(CSc2ncc3ccccn23)cc1	-2.0	nt
CCN(CC)c1nc(Cl)nc(N(C)C#N)n1	3.0	nt
Cc1cc(C)n(-c2ncc(C#N)cn2)n1	nt	-0.27
CCOC(=O)C1=C(C)NC(=S)NC1c1ccc(OCC(=O)N2CCCCC2)c(OC)c1 (configuration not stated)	2.7	-0.58
CC1=CC(=O)C(CCCCCC2=CC(=O)C(C)=CC2=O)=CC1=O	-5.2	1.6
NC(=O)c1cccc(N=Cc2cccc(Cl)c2Cl)c1	1.6	nt
CSc1c(C#N)c(=O)[nH]c2sc(C#N)c(N)c12	2.2	nt
CCOC(=O)c1c(C)[nH]c(C(=O)C(C)OC(=O)[C@H](C)N=C2NS(=O)(=O)c3ccccc32)c1C (some centres not stated)	-0.3	nt
O=C(OC1CCOC1=O)c1ccccc1 (configuration not stated)	0.6	nt
CCN1C(=O)C[C@@H](C(=O)NC)[C@@H]1c1ccc(OC)cc1OC	nt	-0.58
O=C1CCCN1CC(O)CS(=O)(=O)c1ccc(Cl)cc1 (configuration not stated)	3.5	-0.033
CCOC(=O)C1CCN(C(=O)CSc2nc3ccccc3o2)CC1	2.3	nt
CCC(=O)Nc1cccc(C(=O)N2CCc3ccccc32)c1	-1.0	-0.65
Oc1cnn(-c2ccccc2)c1	-1.2	0.6
O=C1C(=Cc2ccc(C(F)(F)F)cc2)C(=O)c2ccccc21	2.3	nt
CC(=O)OCC(=O)[C@@]1(O)CCC2C3CCC4=CC(=O)C=CC4(C)C3[C@@H](O)C[C@@]21C (some centres not stated)	0.0	1.5&0.57
CN(CC1COc2ccccc2O1)c1cc(=O)n2cc(Cl)ccc2n1 (configuration not stated)	2.0	nt
N#CC(C(=O)CN1CCCCC1)c1ccccc1 (configuration not stated)	2.3	-0.11
CSc1nnc(CNC(=O)N(c2ccccc2)c2ccccc2)n1C	2.7	-0.42

Reprinted at random: two entries already listed.
SMILES	Ab BasE inh	KSHV LANA nucl
N#CC(C(=O)CN1CCCCC1)c1ccccc1 (configuration not stated)	2.3	-0.11
COc1ccc(N=C2SC(CC(=O)Nc3ccc(F)cc3F)C(=O)N2CCCN2CCOCC2)cc1 (configuration not stated)	-0.1	nt

(more compounds)
SMILES	Ab BasE inh	KSHV LANA nucl
CC(=O)NCCc1nc2ccc(NC(=O)Cn3nc(C)c4ccccc4c3=O)cc2n1C	2.2	-1.7
Cc1cccc(NC(=O)C(C)(C)C)c1	-0.8	nt
S=C(Nc1ccc(Cl)cc1)Nc1ccc(-c2csnn2)cc1	1.3	nt
O=C(NC1CCCC1)c1ccc2c(=O)n3nc(Nc4ccccc4)sc3nc2c1	-3.5	-1.4
COc1cc(NS(=O)(=O)c2cccc(Cl)c2Cl)cc(OC)c1	1.6	nt
O=c1[nH]c(CNCCO)nc2ccsc12	0.2	nt
O=c1[nH]c(CN2CCSc3ccccc32)nc2ccccc12	2.1	nt
Cc1cc(C(=O)C(C)Sc2n[nH]c(N)n2)c(C)n1-c1ccccc1 (configuration not stated)	-0.2	nt
COc1ccccc1OC(C)C(=O)NN (configuration not stated)	-3.3	nt
CC(Sc1nc2sc3c(c2c(=O)n1C)CCC3)C(=O)Nc1ccc(Cl)cn1 (configuration not stated)	0.4	nt
OC(COc1ccc2ccccc2c1)Cn1ccnc1 (configuration not stated)	0.1	0.1
CCOc1ccc(C(=O)N(C)Cc2ccc(OC)cc2OC)cc1	0.2	nt
CCc1c(C)c(C#N)c2nc3ccccc3n2c1-n1ccnc1	1.7	nt
CC(=O)OC1C(OC(C)=O)N(C(C)=O)C(=O)N1C(C)=O (configuration not stated)	-0.7	nt
Oc1ccc(NC(=S)NCCc2ccccc2)cc1	2.7	0.02
O=C(O)c1ccc2c(c1)C(=O)N(c1cccc(Cl)c1)C2=O	2.1	-0.1
COc1ccc(-c2oc(/N=C/c3ccccc3)c(C#N)c2-c2ccc(OC)cc2)cc1	-2.2	2.8
CC(C)c1cc(N)on1	1.4	nt
Nc1nc2ccc(-c3nc4ccccc4o3)cc2s1	4.7	nt
COc1ccc(NC(=O)C(NC(=O)c2ccccc2NC(=O)c2ccco2)C(C)C)cc1 (configuration not stated)	-4.4	0.28
O=C(COc1ccc(Cl)cc1Cl)Sc1nc2ccccc2o1	8.8	nt
Cc1noc(NS(=O)(=O)c2ccc(NC(=O)NC(C)(C(F)(F)F)C(F)(F)F)cc2)c1C	2.4	0.75
Cc1ccc(Cn2nnc3c(=O)[nH]c(C4CCN(S(=O)(=O)/C=C/c5ccccc5)CC4)nc32)cc1	-0.6	0.31
CCn1c(=S)[nH]c2sc3c(c2c1=O)CCC3	0.0	-0.17
CCC(=O)Nc1ccc(C(=O)N(CC)C2CCCCC2)cc1	2.2	-0.82
O=C(NC(NCc1ccccc1Cl)(C(F)(F)F)C(F)(F)F)c1ccccc1	-1.0	nt
CCCn1c(N)c(C(=O)COC(=O)c2ccc(C)c(NC(=O)c3ccco3)c2)c(=O)[nH]c1=O	-7.0	nt
CC(=O)NCc1cc2cc(Cl)ccc2n1C	2.1	-0.52
COCCNC(=O)C1CC(c2c(F)cccc2Cl)=NO1 (configuration not stated)	-1.3	0.083
Cc1cc(=O)[nH]c(NNS(=O)(=O)c2ccc3ccccc3c2)n1	1.2	nt
CCOC(=O)c1cnn2c1nc(Sc1ccc(C)cc1)c1ccccc12	-0.4	nt
Cc1cc(C)c2c(=O)c(C#N)coc2c1	-0.2	-0.19
O=C(O)C1CCN(S(=O)(=O)c2cccc3nsnc23)CC1	1.6&-3.4	-0.36&-0.65
CC1CC(C)CN(c2cnnc3c(Cl)cccc23)C1 (configuration not stated)	-2.0	nt
C(=N\n1cnnc1)/c1c[nH]c2ccccc12	0.3	-1.1
CC(=O)NCc1ccc(-c2csc(N)n2)o1	-0.2	nt
O=C(CSc1nnc(COc2ccccc2)n1Cc1ccco1)Nc1ccc2c(c1)OCO2	-1.2	-0.042
c1ccc(-c2nnsc2-c2ncc[nH]2)cc1	-2.4	nt
CCOC(=O)c1ccc(/C=N/O)[n+](Cc2ccccc2)c1	1.6	nt
Cc1ccc2nc(-c3ccc(NC(=S)NC(=O)Cc4ccccc4)cc3O)oc2c1	-0.8	-0.4
NC(=O)COC(=O)c1cccc(C(F)(F)F)c1	-1.5	nt
CC1CCC2(CC1)NC(=O)c1ccccc1N2C (configuration not stated)	2.0	nt
O=C(Nc1ccc(F)cc1)NC1CCCCC1NC(=O)Nc1ccc(F)cc1 (configuration not stated)	0.5	nt
COc1cc(NC(=O)c2cccs2)c(C(=O)NCCCn2nc(C)cc2C)cc1OC	-0.3	nt
COCCNS(=O)(=O)Cc1ccc(Cl)cc1	-1.0	-0.79
CC(C)(C)N(N)C(=S)NCc1ccc(F)cc1	-1.2	nt
CC(C)(C)n1nc2c(c1NC(=O)C1CC1)CSC2	1.4	0.26
Cc1nn(Cc2ccccc2)c2sc(C(=O)N3CCCC3)cc12	1.4	nt
Cc1ccc(Cl)cc1NC(=O)CC1NC2CCCCC2NC1=O (configuration not stated)	0.6	-1.1
Cc1nonc1OCCNC(=O)C12CC3CC(CC(C3)C1)C2	-0.7	0.22
O=C(c1cc(N2CCOCC2)c2nc3ccccc3c(=O)n2c1)c1ccccc1O	2.2	nt
Cc1cc2cc(C(c3nnnn3Cc3ccco3)N3CCN(C(=O)c4ccco4)CC3)c(=O)[nH]c2cc1C (configuration not stated)	-2.2	0.46
Cc1nnc(SCC(=O)NC2CCCCC2)n(N)c1=O	2.6	nt
FC(F)(F)C1CCCNC1 (configuration not stated)	0.0	nt
O=S(=O)(/N=C(\Nc1ccncc1)c1ccccc1)c1ccccc1	-13	nt
O=C(Cc1ccccc1)NC1CCN(S(=O)(=O)c2cccc(F)c2)CC1	-1.4	0.9
Cc1nn(-c2ccccc2)c2sc(C(=O)NCCO)cc12	-0.9	-1
CC1CN(CC(=O)NC(c2ccccc2)c2ccccc2)CC(C)O1 (configuration not stated)	0.1	nt
COc1ccc(/C=C/C(=O)Nc2ccccc2)cc1	0.1	-0.58
CC(=O)OC[C@H]1O[C@@H](n2cc(Br)c(=O)[nH]c2=O)C[C@@H]1OC(C)=O	-4.3	1.2

One compound at a time, as listed above. Order of screens: Ab BasE inh	KSHV LANA nucl
COc1cc(NC(=O)c2cccs2)c(C(=O)NCCCn2nc(C)cc2C)cc1OC is listed with -0.3	nt
O=S(=O)(/N=C(\Nc1ccncc1)c1ccccc1)c1ccccc1 is listed with -13	nt
COCCNS(=O)(=O)Cc1ccc(Cl)cc1 is listed with -1.0	-0.79
CC(=O)OC[C@H]1O[C@@H](n2cc(Br)c(=O)[nH]c2=O)C[C@@H]1OC(C)=O is listed with -4.3	1.2

Next section
SMILES	Ab BasE inh	KSHV LANA nucl
O=C(O)c1nsnc1NCCO	-1.7	0.12
Cc1ccc(Nc2nc(N)nc(CC(=O)CSc3nc4ccccc4s3)n2)cc1	3.3	nt
O=C(Cc1ncc(C(F)(F)F)cc1Cl)NCCN1CCCCC1	nt	-1.1
CCn1c(=O)c(=O)[nH]c2cc(C(=O)NC(C)c3ccc(S(N)(=O)=O)cc3)ccc21 (configuration not stated)	0.1	nt
CN(CC(=O)Nc1ccccc1C(=O)NC1CC1)Cc1ccco1	0.9	nt
O=C(CN1C(=O)/C(=C/c2ccccc2F)Sc2ccccc21)N1CCCC1	6.0	-0.55
Cc1cc(C(=O)NCC(C)c2ccccc2)n[nH]1 (configuration not stated)	-0.2	-2.2*
CCCc1c(C)c(C#N)c2[nH]c3ccccc3n2c1=O	1.1	-1.5
C=C1C2(C(=O)Nc3cc(C)on3)CCC(C2)C1(C)C (configuration not stated)	-2.7	0.25
CC(C)N(Cc1nnc(-c2ccccc2)o1)C(=O)c1ccccc1	-0.1	nt
CN(C)C(=O)CCc1nc(-c2ccc(C(C)(C)C)cc2)no1	1.6	0.086
O=S(=O)(CCSc1ccc(C(F)(F)F)cn1)CCSc1ccc(C(F)(F)F)cn1	1.7	nt
COc1ccc(OC)c(N=Cc2cc(I)cc(C)c2O)c1	-5.6	nt
CN(C(=O)c1ccccc1O)C1CCCCC1	4.5	-0.97
CN1C(=O)C(=Nc2cccc(Br)c2)c2ccccc21	-0.2	nt
CC(C)(C)NC(=O)Cc1ccc(S(=O)(=O)N2CCCC2)s1	-2.0	nt
COc1cccc(-n2c(N)cc(=O)n(Cc3ccccc3)c2=O)c1	-0.7	2.2
COc1cc(OC)cc(OC(=O)c2cc(NC(C)=O)cc(NC(C)=O)c2)c1	-21	nt
CCN1C(=O)C(O)(C(C)C(=O)c2ccccc2)c2ccccc21 (configuration not stated)	0.5	0.07
Clc1ccc(Cn2nnc(N3CCCC3)n2)cc1	nt	0.47

Shown with each value named: part of the list above.
CN1C(=O)C(=Nc2cccc(Br)c2)c2ccccc21
  Ab BasE inh: -0.2; KSHV LANA nucl: nt
CC(C)(C)NC(=O)Cc1ccc(S(=O)(=O)N2CCCC2)s1
  Ab BasE inh: -2.0; KSHV LANA nucl: nt
COc1cccc(-n2c(N)cc(=O)n(Cc3ccccc3)c2=O)c1
  Ab BasE inh: -0.7; KSHV LANA nucl: 2.2
COc1cc(OC)cc(OC(=O)c2cc(NC(C)=O)cc(NC(C)=O)c2)c1
  Ab BasE inh: -21; KSHV LANA nucl: nt

Some values from the list.
CN(CC(=O)Nc1ccccc1C(=O)NC1CC1)Cc1ccco1 | Ab BasE inh = 0.9
Clc1ccc(Cn2nnc(N3CCCC3)n2)cc1 | KSHV LANA nucl = 0.47
CCCc1c(C)c(C#N)c2[nH]c3ccccc3n2c1=O | KSHV LANA nucl = -1.5
CN(C)C(=O)CCc1nc(-c2ccc(C(C)(C)C)cc2)no1 | KSHV LANA nucl = 0.086
